HIV TAR-Tat: HIV-1 TAR-Tat binding disruption | HIV-1 TAR RNA, Tat peptide displacement FRET; hits give high values | 100,000 tested, 0.6% active | z-score (test concentration not listed);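 also: score is relative to mean and SD of negative controls; some compounds called inactive have numbers as strong as hits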
CDC25B CDK2 inh: human CDC25B-CDK2/CyclinA binding inhibition; P30305+P24941; HTRF CDC25B-CDK2/CyclinA binding, anti-His/anti-Flag; hits give high values; z-score (concentration not given with the values); 94,000 tested, 0.72% active; AID 1259370;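 also: score is relative to mean and SD of negative controls; strong numbers were not always called active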
* = called active by the depositor; . = not tested or not shown.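 The calls were made as follows: active = z-score from 3 up in half or more of its runs; inactive = the rest.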

SMILES	HIV TAR-Tat	CDC25B CDK2 inh
Cc1c(C(=O)NC2CCCCC2)oc2ccc(S(=O)(=O)N3CCOCC3)cc12	.	-0.33
O=C(CCCCC(=O)NCC(=O)ON1C(=O)CCC1=O)NCC(=O)ON1C(=O)CCC1=O	.	-1.4
CC(=O)N1c2ccc(S(=O)(=O)N3CCC(C(=O)N4CCN(C)CC4)CC3)cc2CC1C (stereo not drawn)	0.61	.
Cc1ccsc1CN(C(=O)c1cccs1)C1CCS(=O)(=O)C1 (stereo not drawn)	0.64	-1.1
CCN1C(=O)Cc2cc(NS(=O)(=O)c3ccccc3Br)ccc21	1.4	.
Fc1ccc(-c2noc3ncnc(NCCN4CCOCC4)c23)cc1	-1.4	.
COc1ccccc1OCCSc1nc(-c2ccco2)nc2cc(=O)[nH]n12	-0.27	.
O=c1oc2ccc(Cl)cc2cc1-c1cn(-c2ccccc2)c(=S)[nH]1	.	-2.5
O=C(NCc1ccco1)C(=O)NCC(c1cccs1)S(=O)(=O)c1ccc(Cl)cc1 (stereo not drawn)	1.1	.
Cc1cc2nc3c(=O)[nH]c(=O)nc-3n(CC(O)C(O)C(O)CO)c2cc1C (stereo not drawn)	2.7	-2.3
COc1ccc2[nH]c3c(=O)[nH]cnc3c2c1	.	-2.2
CC(=O)NCCNC(=O)c1ccc(C)c(NC2=NC3CS(=O)(=O)CC3S2)c1 (stereo not drawn)	0.85	-0.85
CN1CCN(c2ncc3c(n2)CCN(Cc2cccc(F)c2)C3)CC1	0.82	.
CCOC(=O)c1noc2nc(C)nc(NCCCN3CCCC3=O)c12	-0.36	.
COCCN1Cc2cccc(C(=O)O)c2C1=O	0.59	-0.31
CCc1[nH]c(=O)c(C#N)cc1C(=O)O	1.5	-0.6
COC(=O)c1cc(S(=O)(=O)N2CCN(CCOc3ccc(Cl)cc3)CC2)c[nH]1	1	.
NC(=O)CSc1nc(-c2ccccc2)nc2c1Cc1cc(Br)ccc1O2	2.8	-4.4
O=C(O)CCCCCn1c(=O)[nH]c2ccccc2c1=O	1.6	-0.56
CC(C)Sc1ccc2nnc(-c3cccc(F)c3)n2n1	.	-1.4
c1ccc(C2C3=C(CCCC3)Nc3nnnn32)cc1 (stereo not drawn)	-0.5	-0.83
NNC(=O)CSCCCN1CCN(c2cccc(Cl)c2)CC1	.	-1.9
CCOc1c(Br)cc(C2CC(=O)Nc3cc4c(cc32)OCCO4)cc1OC (stereo not drawn)	.	-2.4
CCCN(CCC)CC(O)COc1ccc2ccccc2c1 (stereo not drawn)	0.51	0.18
O=C(CC1(CC2=NS(=O)(=O)c3ccccc3N2)CCCC1)NCc1ccc2c(c1)OCO2	-0.34	.
COCCNc1cc(N2CCN(CCO)CC2)c2noc3c2c1C(=O)c1ccccc1-3	-0.13	-3
O=C(CN1CCOCC1)Nc1c(-c2ccccc2)c2cc(Br)ccc2[nH]c1=O	.	0.5
CNC(=O)C(C)n1nc(C)c2c(C)n(-c3ccccc3)nc2c1=O (stereo not drawn)	0.39	.
Cc1cc2nc(COC(=O)C(C)(C)C)cc(=O)n2o1	0.53	.
CN(C)CCNc1sc(S(C)(=O)=O)nc1S(=O)(=O)c1ccc(Cl)cc1	-1.4	-0.45

Molecules from the list above that contain a thiophene ring, fused or not (2):
SMILES	HIV TAR-Tat	CDC25B CDK2 inh
Cc1ccsc1CN(C(=O)c1cccs1)C1CCS(=O)(=O)C1 (stereo not drawn)	0.64	-1.1
O=C(NCc1ccco1)C(=O)NCC(c1cccs1)S(=O)(=O)c1ccc(Cl)cc1 (stereo not drawn)	1.1	.

Full records from above. Order of values: HIV TAR-Tat	CDC25B CDK2 inh
Shown for CN(C)CCNc1sc(S(C)(=O)=O)nc1S(=O)(=O)c1ccc(Cl)cc1 → -1.4	-0.45
Shown for CNC(=O)C(C)n1nc(C)c2c(C)n(-c3ccccc3)nc2c1=O (stereo not drawn) → 0.39	.
Shown for c1ccc(C2C3=C(CCCC3)Nc3nnnn32)cc1 (stereo not drawn) → -0.5	-0.83
Shown for COC(=O)c1cc(S(=O)(=O)N2CCN(CCOc3ccc(Cl)cc3)CC2)c[nH]1 → 1	.

Some of the entries above in another layout.
Results follow in this order: HIV TAR-Tat, CDC25B CDK2 inh
- COCCNc1cc(N2CCN(CCO)CC2)c2noc3c2c1C(=O)c1ccccc1-3
    -0.13, -3
- O=C(CN1CCOCC1)Nc1c(-c2ccccc2)c2cc(Br)ccc2[nH]c1=O
    ., 0.5

(listing goes on)
SMILES	HIV TAR-Tat	CDC25B CDK2 inh
Cc1noc2ncnc(NCCc3ccsc3)c12	1.7	.
Cc1cccc(NC(c2ccccn2)c2ccc3ccc(C)nc3c2O)n1 (stereo not drawn)	.	1.7
COCCn1c(-c2ccc(C(C)(C)C)cc2)n[nH]c1=S	.	0.32
CCCN(CCC)S(=O)(=O)c1c[nH]c(C(=O)OC)c1	1	.
Cc1nn(-c2ccccc2)c2nc(-c3ccncc3)cc(C(F)(F)F)c12	-0.26	-2
CC(C)CNc1ncnc2c1sc1nc(C(C)C)c3c(c12)CC(C)(C)OC3	1.1	1.2
O=C(COCC(=O)N1CCOCC1)N1CCOCC1	.	-1.8
O=C(Cn1ncc2ccccc21)Nc1ccc(Br)cc1F	-0.57	-2.8
CCC1CCCCN1CCCNC(=O)c1ccc2c(=O)n3c(nc2c1)CCCCC3 (stereo not drawn)	.	-0.28
O=c1c2c([nH]c(=S)n1-c1ccccc1)-c1ccccc1CC21CCCCC1	.	-3.3
CN(C(=O)c1cccc(N2C(=O)CCS2(=O)=O)c1)C1CCS(=O)(=O)C1 (stereo not drawn)	0.39	-1.8
O=C1CCCC2=C1C(c1ccco1)N(C(=O)Nc1cccc(Br)c1)c1ccccc1N2 (stereo not drawn)	0.69	.
COc1ccc(C2=C(N3CCN(c4ccccn4)CC3)c3ccccc3C2=O)cc1	-7.1	-0.9
CCn1c(=O)cc(N2CCN(C(=O)c3ccco3)CC2)[nH]c1=O	2.1	.
O=C(CN1CCCN(c2ncc(C(F)(F)F)cc2Cl)CC1)Nc1c(F)cccc1F	.	-1.8
Cc1ccc(C(=O)COC(=O)CCCC(=O)Nc2ccc(Br)cc2)cc1[N+](=O)[O-]	.	-2.3
CCSc1nc2ccccc2n1Cc1ccccc1	.	-1.1
CC(C)c1ccc(S(=O)(=O)c2c[nH]c3ccccc3c2=O)cc1	1.8	-2.1
O=C(Nc1ccccc1SCc1cc(=O)n2ccsc2n1)c1cccs1	-0.26	.
Cc1ccc(-c2cc(C(=O)N3CCN(C(c4ccccc4)c4ccccc4)CC3)c3ccccc3n2)cc1C	.	-13
Cc1nc2ncnn2c(C)c1CCC(=O)NC(C)C	1.2	-1.3
C=CCOC(=O)c1sc(N2C(=O)c3oc4ccccc4c(=O)c3C2c2cccnc2)nc1C (stereo not drawn)	-0.36	0.1
O=C(Cn1ncc2c3ccccc3n(Cc3cccc(Cl)c3)c2c1=O)NC1CC1	-0.33	0.7
CCc1nn(CC(=O)NCC2CCCO2)c(=O)c2cc3occc3n12 (stereo not drawn)	3	-1.2
CCc1ccc2[nH]cc(S(=O)(=O)c3ccc(C)cc3)c(=O)c2c1	1.8	-1.9
FC(F)(F)c1ccnc(NC2CCN(Cc3ccccc3)CC2)n1	.	-2
O=C(NCc1nnc(SCC(=O)N2CCc3ccccc32)n1-c1cccc(Cl)c1)c1ccco1	1.4	0.23
COCCN1C(=O)c2[nH]nc(-c3ccccc3O)c2C1c1ccc(C(C)(C)C)cc1 (stereo not drawn)	-0.32	-0.72
Cc1cc(C)n(-c2cc(Nc3ccc(F)cc3)ncn2)n1	-0.72	.
Fc1ccc(N2CCN(Cc3nnc(-c4ccc5c(c4)OCO5)o3)CC2)cc1	1	-1.7

Fetched one by one from the list above:
SMILES	HIV TAR-Tat	CDC25B CDK2 inh
c1ccc(C2C3=C(CCCC3)Nc3nnnn32)cc1 (stereo not drawn)	-0.5	-0.83
Cc1ccc(C(=O)COC(=O)CCCC(=O)Nc2ccc(Br)cc2)cc1[N+](=O)[O-]	.	-2.3

Following part
SMILES	HIV TAR-Tat	CDC25B CDK2 inh
COc1ccc(-c2c(C#N)c(N)nc(SC3CCCCC3=O)c2C#N)cc1 (stereo not drawn)	.	-0.88
Cc1csc2ncnc(N3CCCCC3)c12	.	-0.31
Cc1nc2c3ccccc3n3c(CCCC(=O)O)nnc3n2n1	1.7	0.16
CCN(CC)CCNC(=O)CCc1c(C)nc2c(c1C)c(=O)n(C)c(=O)n2C	1.6	-1.7
Cc1nnc2sc(-c3ccccc3Cl)nn12	-0.49	-0.96
CCCS(=O)(=O)N1CCCc2ccc(NS(=O)(=O)c3ccc(Cl)cc3)cc21	1.6	.
CSC(SC)=C(C#N)S(=O)(=O)C(C)C	.	-2.3
COc1ccc(/C(O)=C2/C(=O)C(=O)N(CCc3ccccc3)C2c2ccccc2)cc1 (stereo not drawn)	1.9	-3.1
O=C(CCC(=O)n1ncc2ccc(Cl)cc21)NC1CCCC1	1.6	0.22
Nc1ccccc1Sc1nc(-c2ccccc2N)ccc1[N+](=O)[O-]	.	1.7
O=C(C1CCN(c2nn3c(=O)c4c(nc3s2)CCCC4)CC1)N1CCN(C2CCCCC2)CC1	1.8	.
COc1cccc(C2NC(=O)N(C)C(O)(C(F)(F)F)C2C(=O)c2cccs2)c1OC (stereo not drawn)	.	-1.1
Cn1cnc2c1c(=O)[nH]c(=O)n2C	9.2	-2.3
CCN(CC)CCSc1nnc2c3cc(F)ccc3n(CC)c2n1	-0.67	-3.5
O=C(CN1CCN(c2nc3cc(Cl)ccc3s2)CC1)c1ccc(-c2ccccn2)s1	.	-0.23
O=S(=O)(c1ccc(Cl)cc1)c1nnn2c1nc(NCc1ccco1)c1sccc12	-0.38	.
CCc1c(C)sc(NC(=O)c2noc(C)c2[N+](=O)[O-])c1C#N	-0.69	-1.6
CCOC(=O)c1ccc(NC(=S)NC(C)c2ccc3c(c2)OCCO3)cc1 (stereo not drawn)	.	0.59
CCOC(=O)c1ccc2c3c(onc13)-c1ccccc1C2=O	-8.7	-0.67
CCCCN1CC(c2nc3ccccc3n2CCCOc2ccccc2Cl)CC1=O (stereo not drawn)	1.3	1.8
CCCC1c2cccn2CCN1C(=O)Nc1ccccc1Cl (stereo not drawn)	-0.23	.
Nc1ncc(-c2nnnn2-c2ccc(F)cc2)c(C(F)(F)F)n1	.	-0.16
Cn1c(=O)c2c(SCC(=O)N3CCCC3)nc(-c3ccc(F)cc3)nc2n(C)c1=O	.	0.29
CCOc1ccc(Nc2cc(C)nc3nncn23)cc1	1.1	-0.85
COc1ccc(Cc2nnc(N)s2)cc1OC	2.9	-1.9
CCCC(O)c1nc2ccccc2[nH]1 (stereo not drawn)	1.4	-1.7
Cn1c(=O)c2c(nc(N3CCC(C(N)=O)CC3)n2CCSc2nc3ccccc3s2)n(C)c1=O	.	-1.2
COc1cccc(Sc2nc(SC)nc(Sc3cccc(OC)c3)c2C#N)c1	.	-2.7
CCCCCC1COC(c2ccc(-c3ccc(C)c(N)c3)o2)OC1 (stereo not drawn)	.	-0.04
CCOC(=O)c1sc2nc(SCC(=O)Nc3nccs3)n(CC3CCCO3)c(=O)c2c1C (stereo not drawn)	.	-3.3
COc1ccc(-c2cc3nc(C)cc(NC4CCCCC4)n3n2)cc1OC	2.9	1.7
CN(C)/C=C(\C#N)C(=O)Nc1ccccn1	.	-1.9
COCC(C)Nc1ncnc2c1cnn2-c1cccc(Cl)c1 (stereo not drawn)	1.2	.
Cn1c(CSc2ncccn2)nnc1SCC(N)=O	0.79	-0.49
Nc1nc(F)cc(N2CCOCC2)n1	.	0.69
Cc1cc(C)c(C#N)c(SCCS(=O)(=O)c2nc3ccccc3s2)n1	.	-13
CC1CCCC(C)N1CCCNC(=O)Cn1ncc2c3ccccc3n(C)c2c1=O (stereo not drawn)	-0.35	-1.1
O=C1c2cccc([N+](=O)[O-])c2C(=O)N1c1ccc2[nH]c(=S)sc2c1	.	0.23
C=CCn1c(SCC(=O)NNC(=S)NC)nnc1-c1ccccc1	.	-0.66
CCOC(=O)c1ccc(N=Cc2ccc(Cl)cc2)cc1	.	-0.86
O=C(CSC1=NCCS1)Nc1nc2ccccc2s1	-0.51	-0.83
CCC(C(=O)NC1CCCc2ccccc21)n1nc(C)n2c(cc3sccc32)c1=O (stereo not drawn)	0.53	0.77
O=C(NCCCN1CCCCC1)C1CCN(c2ncnc3c2nc2n3CCCCC2)CC1	-0.56	.
Fc1ccccc1-c1ccc(CNCCCSc2nnnn2-c2ccccc2)o1	-0.51	-0.4
CCOc1ccc(NC(=O)Nc2cc(C)on2)cc1	.	-2.5
CC(=O)Oc1ccc(C2Nc3ccccc3NC3=C2C(=O)CC(c2ccccc2)C3)cc1 (stereo not drawn)	2	.
O=C(CCCN1C(=O)CSc2ncccc21)N1CCc2ccccc21	-0.18	-1.5
O=C(Nc1cc(-c2cccc(Cl)c2)no1)c1cc(-c2cccnc2)nc2ccccc12	-0.46	.
Clc1cccc(Cc2nn[nH]n2)c1	0.81	-0.76
Cc1ccc(C2c3c(oc4ccc(Cl)cc4c3=O)C(=O)N2CCCN2CCOCC2)cc1 (stereo not drawn)	0.63	-1.8
Cc1cc(-c2ccc(S(=O)(=O)Nc3ccc(Cl)cc3C)o2)n[nH]1	1.8	.
COc1cccc(C2CC(c3ccc(C)c(C)c3)Nc3nnnn32)c1OC (stereo not drawn)	1.2	.
O=C1OC2(c3ccc(Br)cc3)C(OC(=O)C23CCCC3)C12CCCC2 (stereo not drawn)	.	-1.7
C=CCn1c(SCc2cc(F)ccc2F)nc2cc(C(=O)N3CCC(C(N)=O)CC3)ccc2c1=O	1.5	.
Cn1cc(-c2cc3n(n2)CCCN3C(=O)CCC(=O)NC2CC2)c2ccccc21	2.1	.
Cc1nc(NC(=O)c2cnccn2)ccc1Br	.	-0.96
CC1(C)CC(=O)C2=C(C1)N1C(=C(C#N)C2c2cccnc2)N=C(N)c2ccccc21 (stereo not drawn)	-5.3	0.17
Cc1nn(C(C)C(=O)N2CCOCC2)c(=O)c2nn(-c3ccccc3)c(C)c12 (stereo not drawn)	0.81	.
